# Bioassay records (PubChem)
# BmaI1 = BmaI1 acyl-homoserine lactone synthase inhibition – biochemical, fluorescence intensity, with counterscreen (AID 720554). inhibition, %. 12,000 tested, 0.4% active. BmaI1 enzyme assay, fluorescence intensity; hits give high values; test concentration not given here; a few actives read low; strong numbers were not always called active;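 active = both replicates within 2 robust z-scores of the inhibited control and a quiet counterscreen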;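 note: 0% = uninhibited enzyme and 100% = inhibited control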
# BmaI1 counterscreen = recorded beside BmaI1, whose call it bears; inhibition, %; measured here: counterscreen; design of the counterscreen not given here;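 first of two replicates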
# Starred values were filed as active, the others as inactive; & = joins results of further samples.
# The line under a structure holds: BmaI1 counterscreen	BmaI1
O=C1CCC(N2C(=O)c3ccccc3C2=O)C(=O)N1 (configuration not stated)
 : 7	-1
CCN(CC)c1nc2ccccc2n1Cc1ccc(Cl)cc1
 : 7	15
Cc1cc(C(=O)CSc2nncn2C)c(C)n1CCc1ccc(Cl)cc1
 : 7	12
COC(=O)COc1ccc2ccc(=O)oc2c1
 : -10	-8
CC(C)c1ccccc1NC(=O)CN1c2ccccc2CC1C (configuration not stated)
 : -11	40
CCOc1ccc(Nc2ncccc2C#N)cc1
 : 9	14
O=C(CC1Sc2ccccc2NC1=O)OCN1C(=O)c2ccccc2C1=O (configuration not stated)
 : -2	10
COC(=O)Cc1c(C(=O)OC)sc(N)c1C(=O)OC
 : 6	76
NNCCc1ccccc1
 : -27&-62	-42&-72
COc1ccc(C2=NN(C(=O)COc3ncnc4ccccc34)C(c3ccco3)C2)cc1 (configuration not stated)
 : 10	14
N#CCC(=O)c1ccc(F)cc1
 : -4	-10
Cc1cc(C(=O)CN2C(=O)NC(C)(c3ccccc3)C2=O)c(C)n1C (configuration not stated)
 : -7	-2
CC1Cc2cc(C(=O)Nc3ccc(C(F)(F)F)cc3)ccc2N1S(C)(=O)=O (configuration not stated)
 : 6	14
CCOc1ccc(S(=O)(=O)N/N=C(\C)c2cccnc2)cc1
 : 3	14
CCN1CCCC1CNc1cc(C)c2ccc(C)cc2n1 (configuration not stated)
 : 0	11
COc1ccccc1-c1nnc(SCc2cccc(S(=O)(=O)N(C)C)c2)n1N
 : -6	8
CC(C)NS(=O)(=O)c1ccc(NC(=O)CSC(C)(C)C)cc1
 : -4	4
COc1cc(Nc2nc3ccccc3nc2N=CN(C)C)cc(OC)c1OC
 : 2	2
O=C(OCc1ncc(-c2ccccc2)o1)c1ccc(Cl)nc1
 : 3	16
CCCn1c(SCc2cc(OC)c(OC)cc2C)n[nH]c1=O
 : 14	12
CNC(=O)CSc1nc2ccccc2s1
 : 4	17
CC(C)n1nc(C(=O)N2CCC(=O)CC2)c2ccccc2c1=O
 : 10	14
CCCCCCn1nc(C(=O)OCC(=O)c2ccc[nH]2)c2ccccc2c1=O
 : 6	4
CN(C)/C=C1/C(=O)N(c2ccc(Cl)cc2)C(=O)c2ccccc21
 : 11	25
O=c1c2ccccc2nnn1CSc1nc2ccccc2c(=O)n1CCC1=CCCCC1
 : 6	2
O=C(OC1CCOC1=O)c1cccc(S(=O)(=O)N2CCCC2)c1 (configuration not stated)
 : 2	6
CC(C)OC(=O)C(C)(C)Oc1ccc(C(=O)c2ccc(Cl)cc2)cc1
 : 22	0
CC1CCCCC1NC(=O)c1ccc[nH]c1=S (configuration not stated)
 : 48	69
CCOC(=O)c1[nH]c(C)c(C(=O)OCCN2C(=O)c3ccccc3C2=O)c1C
 : 10	16
CN(C)CCCN1c2ccccc2CCc2ccc(Cl)cc21
 : 22	-2
COc1ccc2c(CN(C)CC(=O)Nc3ccc(N4CCOCC4)cc3)cc(=O)oc2c1
 : 0	14
CCC(=O)c1ccc(OCC(=O)N2CCN(S(=O)(=O)c3cccc(C(F)(F)F)c3)CC2)cc1
 : 2	10
Cc1ccc(C(=O)CSc2nnc(-c3ccc4c(=O)n5c(nc4c3)CCCCC5)o2)s1
 : 5	25
COC(=O)CSc1cc(C(=O)c2nccn2C)c2ccccc2n1
 : 2	7
O=C(Cc1ccccc1)Nc1ccc2c(c1)OCO2
 : 7	16
O=C(O)CCN1C(=O)S/C(=C\c2cccs2)C1=O
 : 6	12
CCOC(=O)c1ccc(-c2ccc(-c3nc4ccc(S(N)(=O)=O)cc4[nH]3)o2)cc1
 : 0	28
N#Cc1ccc(OCC(=O)OCC(N)=O)cc1
 : 10	20
NS(=O)(=O)c1ccc(CCNC(=O)c2ccc(/C=N/O)cc2)cc1
 : 9	16
CCOC(=O)O[C@]1(C(=O)OCCl)CC[C@H]2[C@@H]3CCC4=CC(=O)C=C[C@]4(C)[C@H]3[C@@H](O)C[C@@]21C
 : 1	-2
CS(=O)(=O)c1ccc(C(=O)NC2CCCCC2)cc1
 : 5	14
CCOC(=O)c1c(/N=C/N(C)C)sc(C(=O)OC)c1C
 : 7	13
CC(C)(C)C(=O)c1sc2c(c1N)c(=O)[nH]c(=O)n2C1CCCCC1
 : 1	37
CC(Sc1nncn1C)C(=O)Nc1ccc(Cl)cc1 (configuration not stated)
 : 8	5
Cc1nc(Cc2nnc(SCC(=O)N3c4ccccc4Sc4ccccc43)o2)cs1
 : 4	22
CN(CC(=O)Nc1cc(S(C)(=O)=O)ccc1Cl)Cc1nc2ccccc2c(=O)[nH]1
 : 0	10
NC(=O)CSc1ccccc1NC(=O)c1ccc(=O)[nH]c1
 : 12	12
O=C(Nc1ccccc1C(F)(F)F)C1CC2CCCC(C1)C2=O (configuration not stated)
 : 0	12
CCN1C(=O)/C(=N\N2C(=O)CSC2=S)c2ccccc21
 : -5	66
Cc1ccc(C)n1-c1ccc(C(=O)OCC(=O)c2cccs2)cc1
 : -6	10

# Going on with the list.
# The line under a structure holds: BmaI1 counterscreen	BmaI1
C/C(=N\OCC(=O)Nc1ccc(S(=O)(=O)N2CCOCC2)cc1)c1ccc2c(c1)OCCO2
 : -2	18
Cc1[nH]n(CCC#N)c(=O)c1C1=NCCCCC1
 : -4	11
NC(=O)NC(=O)COc1ccccc1Br
 : 8	7
CC(C)CCC1(C)NC(=O)N(CC(=O)c2ccc3c(c2)OCO3)C1=O (configuration not stated)
 : 0	6
CCOc1ncccc1C(=O)N1CCN(S(=O)(=O)c2ccc3c(c2)OCCO3)CC1
 : 3	5
CC(OC(=O)Cc1ccc(F)cc1)C(=O)Nc1ccc2c(c1)OCCO2 (configuration not stated)
 : 4	9
CC(=O)NNc1nc(-c2ccccc2)cs1
 : 26	72
Cc1cc(C(=O)CSc2nnc(NCc3ccccc3)s2)c(C)n1C
 : -6	10
O=S(=O)(c1cccc(-c2nnc3n2CCCCC3)c1)N1CCCCC1
 : 2	8
Cc1ccc(C(=O)c2ccccc2C(=O)OCC(=O)N2CCCC2)cc1
 : 4	6
CCc1ccc2c(CC(=O)N(C)Cc3ccccc3OC)coc2c1
 : -6	-8
COC(=O)c1ccc2c(=O)[nH]c(COC(=O)c3c(-c4ccccc4)noc3C)nc2c1
 : -2	12
CC(C)N(Cc1nnc(-c2ccc(Cl)cc2)o1)C(=O)/C=C/c1ccc(F)cc1
 : 6	-6
C=CCNc1nc(C(=O)OCCCn2c(=O)[nH]c3ccccc32)cs1
 : 10	25
CC(=O)Oc1cccc(OC(C)=O)c1OC(C)=O
 : -2	68
CCOC(=O)c1c(C2CC2)csc1NC(=O)CSc1nnc(C(CC)N(C)C)o1 (configuration not stated)
 : 8	14
CN(C)C(=O)/C=C/c1ccc(Cl)cc1
 : 2	6
O=C(O)CNC(=O)C1CC1
 : -3	16
Cc1ccc(C2C3=C(CC(C)(C)CC3=O)Nc3onc(C)c32)cc1 (configuration not stated)
 : -60	-58
CCN(CC(=O)Nc1cccc(F)c1)CC(=O)Nc1ccccc1OC
 : 16	16

# An excerpt from above in order of length of the SMILES, descending:
# The line under a structure holds: BmaI1 counterscreen	BmaI1
COC(=O)c1ccc2c(=O)[nH]c(COC(=O)c3c(-c4ccccc4)noc3C)nc2c1
 : -2	12
CCOC(=O)c1c(C2CC2)csc1NC(=O)CSc1nnc(C(CC)N(C)C)o1 (configuration not stated)
 : 8	14
CCc1ccc2c(CC(=O)N(C)Cc3ccccc3OC)coc2c1
 : -6	-8

# Next section.
# The line under a structure holds: BmaI1 counterscreen	BmaI1
COc1cccc(-n2cnnc2SCC(=O)c2ccc(CNC(=O)C(C)(C)C)s2)c1
 : 0	14
CC(C)CN(C(=O)c1ccc(=O)n(C)n1)c1nc2ccccc2s1
 : 5	14
O=C(COC(=O)CSc1ncnc2sccc12)Nc1nnc(-c2ccccc2)o1
 : 8	62
O=C(OC1CCOC1=O)c1ccc(-c2nc3ccccc3s2)s1 (configuration not stated)
 : 8	14
COc1ccc(CNC(=O)CNCc2ccco2)cc1OC
 : 4	10
O=C(CCCSc1nc2ccccc2[nH]1)N1CCN(S(=O)(=O)Cc2ccccc2)CC1
 : 2	10
CC1CCCC(C)N1C(=O)COC(=O)c1ccc(N2C(=O)c3ccccc3C2=O)cc1 (configuration not stated)
 : 2	0
O=C(OC1CCOC1=O)c1cc(-c2ccco2)nc2ccccc12 (configuration not stated)
 : 2	48
O=C(COC(=O)C1CC2C=CC1C2)Nc1cccc(C(F)(F)F)c1 (configuration not stated)
 : 8	10
O=C(O)c1ccccc1SCC1CCCO1 (configuration not stated)
 : 3	6
Cc1ccc(C(NC=O)c2ccccc2)cc1 (configuration not stated)
 : 10	15
O=C(NCCc1ccc2c(c1)OCCO2)c1ccncc1
 : -2	2
O=C(OC/C=C/c1ccccc1)c1cccc(-n2cnnn2)c1
 : 10	16
Cc1cc(/C=C/C(=O)N2CCN(S(=O)(=O)c3cccs3)CC2)c(C)n1-c1ccnn1C(C)C
 : 4	10
O=C1CCC(C(=O)OCC(=O)Nc2ccc3c(c2)OCO3)=NN1
 : 0	12
COCC(C)Nc1ncnc2sc3c(c12)CCC3 (configuration not stated)
 : 0	6
CCOC(=O)[C@H](CCc1ccccc1)N[C@H]1CCc2ccccc2N(CC(=O)O)C1=O
 : 1	1
COC(=O)c1ccccc1S(=O)(=O)NC(Cc1ccccc1)C(=O)OC (configuration not stated)
 : 2	4
CC1(C)CC2CC(C)(CN2CC(=O)Nc2ccc3c(c2)OCCO3)C1 (configuration not stated)
 : -3	6
CCN1CCc2c(sc3[nH]c(=S)n(-c4cccc(OC)c4)c(=O)c23)C1
 : 36	58
O=C(CCc1nc2ccccc2c(=O)[nH]1)Nc1ccccc1C(=O)NC1CC1
 : 6	14
CCc1ccc(C(N)=S)cc1
 : 13	24
O=C(Cc1ccsc1)OCc1csc(-c2ccccc2)n1
 : 22	29
CN(C)S(=O)(=O)c1ccc(N2CCCC2)c(C(=O)NCc2ccccc2)c1
 : 0	12
O=C1NC2(CCc3ccccc32)C(=O)N1Cc1ncc(-c2ccccc2)o1 (configuration not stated)
 : 13	22
CCOc1ccccc1C(=O)N[C@H](C(=O)Nc1c(N)nc(N)n(C)c1=O)C(C)C
 : 2	2
N#Cc1ccccc1NCC(=O)N1CCN(S(=O)(=O)c2ccccc2)CC1
 : 7	14
N#CCc1c(C#N)c(N)nc(N2CCN(S(=O)(=O)c3ccccc3)CC2)c1C#N
 : 14	19
COc1ccc(C2SC(C)C(=O)N2CCCn2ccnc2)cc1OC (configuration not stated)
 : 6	8
O=C(COc1ncnc2ccccc12)NC(=O)NC1CCCCC1
 : 14	13
Oc1c(C(Nc2ccccn2)c2cccnc2)ccc2cccnc12 (configuration not stated)
 : -15	14
CN(Cc1cccs1)C(=O)Cn1cnc2ccccc2c1=O
 : 8	12
CC1CCN(C(=O)CCNC(=O)c2ccccc2)CC1
 : 14	14
Cc1cc(C(=O)COC(=O)c2ccc(S(=O)(=O)N(C)C)cc2)c(C)n1-c1ccc2c(c1)OCO2
 : -2	12
COc1cc(NC(=O)[C@@H](NC(=O)c2cc(OC)cc(OC)c2)C(C)C)cc(OC)c1
 : -3	2
CC(C)Cn1c(SCC(=O)NCC(F)(F)F)nc2ccccc21
 : -4	-11
Cc1ccn2c(=O)cc(CNCC(c3ccco3)N3CCCCC3)nc2c1 (configuration not stated)
 : 10	9
COC(=O)c1ccc(COC(=O)c2oc3ccc(OC)cc3c2C)o1
 : -2	15
CCc1oc2ccccc2c1C(=O)c1cc(Br)c(O)c(Br)c1
 : 8	24
Cc1ccc(S(=O)(=O)N2CCCC2C(=O)OCC(=O)Nc2cc(C)on2)cc1 (configuration not stated)
 : 10	10
O=C(Cc1ccc(S(=O)(=O)N2CCOCC2)s1)Nc1ccc(-c2cn3ccsc3n2)cc1
 : 17	11
Nn1cnc2ccccc2c1=O
 : -4	6
Cc1noc(C)c1CCC(=O)Nc1ccc(Br)cc1Cl
 : 9	10
CC(=O)N1CCN(C(=O)c2nn(Cc3ccccc3)c(=O)c3ccccc23)CC1
 : 4	8
CC(C)CCC1(C)NC(=O)N(CC(=O)c2ccc[nH]2)C1=O (configuration not stated)
 : -4	13
Cc1ccccc1N(C(=O)CCc1c(C)noc1C)c1nc2ccccc2s1
 : -9	-8
CC1S/C(=C\c2nc3ccccc3s2)NC1=O (configuration not stated)
 : 60	44
Nc1c(C(=O)c2ccc(Cl)s2)sc2c1c(=O)[nH]c(=O)n2Cc1cccs1
 : 5	-7
Cc1ccc(-n2ccnc2SCC(=O)NC(=O)C2COc3ccccc3O2)c(C)c1 (configuration not stated)
 : 4	28
CC(C#N)Sc1nnc2ccccn12 (configuration not stated)
 : 6	12

# Next entries.
# The line under a structure holds: BmaI1 counterscreen	BmaI1
CN1CCN(Cn2c(=S)oc3ccccc32)CC1
 : 26	36
CCCn1c(=O)n(C)c(=O)c2c(SCC(=O)NCC3CCCO3)nc(C(C)(C)C)nc21 (configuration not stated)
 : 11	17
NC(=O)N/N=C1/C=C(c2ccccc2)C(O)(c2ccccc2)C1 (configuration not stated)
 : 4	10
COc1cc2c(cc1OC)C(CC(=O)O)c1cc(OC)c(OC)cc1C(=O)C2 (configuration not stated)
 : 10	26
COc1ccccc1NC(=O)Cc1noc(COC(=O)c2ccc(SC)cc2OC)n1
 : 11	12
CN(C)/C=N/n1cnnc1
 : 3	2
O=C(O)/C=C/c1ccc(Cn2ccnc2)cc1
 : 2	1
O=C(OCC(=O)N1CCCCC1)c1ccc(S(=O)(=O)N2CCCCC2)cc1
 : 6	13

# Of the compounds above, 8 have a furan ring, fused or not:
# The line under a structure holds: BmaI1 counterscreen	BmaI1
COc1ccc(C2=NN(C(=O)COc3ncnc4ccccc34)C(c3ccco3)C2)cc1 (configuration not stated)
 : 10	14
CCOC(=O)c1ccc(-c2ccc(-c3nc4ccc(S(N)(=O)=O)cc4[nH]3)o2)cc1
 : 0	28
CCc1ccc2c(CC(=O)N(C)Cc3ccccc3OC)coc2c1
 : -6	-8
COc1ccc(CNC(=O)CNCc2ccco2)cc1OC
 : 4	10
O=C(OC1CCOC1=O)c1cc(-c2ccco2)nc2ccccc12 (configuration not stated)
 : 2	48
Cc1ccn2c(=O)cc(CNCC(c3ccco3)N3CCCCC3)nc2c1 (configuration not stated)
 : 10	9
COC(=O)c1ccc(COC(=O)c2oc3ccc(OC)cc3c2C)o1
 : -2	15
CCc1oc2ccccc2c1C(=O)c1cc(Br)c(O)c(Br)c1
 : 8	24

# Not all compounds are listed (hit frequency here may not be typical).
